High-throughput results deposited in PubChem by National Center for Advancing Translational Sciences (NCATS).
PMP22 txn: Cell-based coincidence reporter assay to measure PMP22 gene transcription in S16 Pmp22-F2sN cells - Primary screen; Potency, µM (titrated, usually from 57.5 µM), inactives show top-dose activity change, negative = inhibition, most hits filed as inhibitors; S16 Pmp22-F2sN Schwann cells (luciferase reporters placed in the Pmp22 gene), FLuc/NLuc coincidence luminescence, 24 h; hit rate 2% among 43,000; active = clear falling dose curves in both reporters; inconclusive = both reporters move, but less clearly or upward; inactive = either reporter flat; the % is the NLuc reporter signal; further: on the % scale 0 is the no-effect control and ±100 the full control effect; some results filed as inactive show a strong effect at the top dose
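Luminescent read-out of sequential FLuc and NLuc signals from a reporter embedded in the Pmp22 3' UTR of S16 Schwann cells, taken after 24 h compound exposure at 37C; compounds reducing both signals score as inhibitors of expression.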
HTT prom inh: Primary qHTS for Identification of Small Molecule Inhibitors of Huntingtin Promoter Activity. HEK293 HTT promoter firefly luciferase reporter (activity 0% = vehicle and -100% = no light), 24 h. Potency, µM (titrated, usually from 57.5 µM), inactives show top-dose activity change, negative = inhibition, actives largely listed as inhibitors. hit rate 0.93% among 48,000. AID 1508623, 2021; active means well fitted inhibition curve with a large enough effect; inconclusive means small, poorly fitted or top-dose-only effect; inactive means no such curve, though single readings can be large or run the other way; further: nearly all actives have a fitted effect of over 50% in size
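Firefly luciferase signal from promoter-reporter HEK293 cells was scaled between vehicle (0%) and zero RLU (-100%). Compounds were tested at final concentrations of up to 57.5 uM over 24 h at 37 degrees C. PTC124 at 50 uM final served as control inhibitor.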
Starred values were filed as active, the others as inactive; ? = inconclusive; . = no result given; & = joins results of further samples; [ ] = dose if it differs, or a comment. Potency means the concentration at half of the fitted maximal effect.

SMILES	PMP22 txn	HTT prom inh
CC(NC(=O)CCNS(=O)(=O)c1cccc2nsnc12)c1ccccc1 (stereo not drawn)	-1%	-3%
CCCN1Cc2cccc(C(=O)Nc3cccc(C(=O)OCC)c3)c2C1=O	-54%	-9%
CC(=O)c1cc2ccccc2s1	.	9%
COc1cccc2c1Oc1nc(-c3ccccc3)nc(SCC(=O)Nc3ccccc3)c1C2	1%	-10%
COc1cccc(NC(=O)C2CCN(c3cc(C)nc4c(-c5ccc(Cl)cc5)c(C)nn34)CC2)c1	-1%	-16%
Cc1ccc(-c2nn3c(=O)cc(CN4CCN(C(=O)/C=C/c5ccccc5)CC4)nc3s2)cc1	-10%	-17%
Cc1ccc(C)c(NC(=O)C(CC(C)C)N2Cc3ccccc3C2=O)c1 (stereo not drawn)	-9%	?
Cc1ccc(-n2nc(C)c3c(C)cc(=O)n(CC(=O)Nc4cc(Cl)ccc4C)c32)cc1	-21%	-23%
Cc1ccc(S(=O)(=O)C2(C(=O)Nc3ccc(C(C)C)cc3)CC2)cc1	-4%	50%[activator]
COc1ccccc1N1CCN(C2C(=O)c3ccccc3N2C(C)=O)CC1 (stereo not drawn)	-27%	-31%
Cc1ccc(-n2nc(C)c3c(C(=O)O)cc(C)nc32)cc1	16%	-15%
CC(C)(C)OC(=O)N1CCC(c2c(C(=O)N3CCN(c4ccccn4)CC3)cnn2-c2cccc(F)c2)CC1	-41%	2%
CC(C)C(=O)NCC(c1ccc2c(c1)OCO2)N1CCN(c2ccccc2)CC1 (stereo not drawn)	-4%	-19%
Cc1cccc(NC(=O)CN(C)S(=O)(=O)c2ccc3c(c2)c(=O)n(C)c(=O)n3C)c1	-3%	-12%
Cc1ccc(Cl)cc1NC(=O)Cn1ncc2c(C)n(Cc3ccccc3F)c(C)c2c1=O	?	?
CCCCOC(=O)c1ccc(NC(=O)c2cc(=O)c3ccccc3o2)cc1	?	-17%
COc1ccc(N2CCN(C(=O)Cn3nc(Cc4cccnc4)c4ccccc4c3=O)CC2)cc1	-29%	?
CC1=C(C(=O)Nc2cc(C)ccc2C)C2(CCCCCC2)OC1=O	7%	0%
COc1ccc(CN2C(=O)C(NC(=O)c3ccccc3C)(C(F)(F)F)N=C2c2ccccc2)cc1 (stereo not drawn)	?	-24%
NC(=NCCCCCCN=C(N)N=C(N)Nc1ccc(Cl)cc1)N=C(N)Nc1ccc(Cl)cc1	.	32%[activator]
COc1cc(C(=O)n2nc(-c3ccco3)nc2NCc2ccc(Cl)cc2)cc(OC)c1OC	18%	26%
CC1CCCCN1C(=O)CSc1n[nH]c(-c2ccccc2Cl)n1 (stereo not drawn)	-41%	20%
CCOC(=O)Cc1ccc(NC(=O)N2CC(CC)Oc3ccccc32)cc1 (stereo not drawn)	13%	-9%
Cc1ccc2c(c1)-c1onc(C(=O)N3CCN(c4cccc(C)c4C)CC3)c1CO2	-4%	-14%
CCOC(=O)c1ccccc1Nc1cc(C)nc2nc(-c3ccco3)nn12	?	-17%
Nc1[nH]nc2nnc(-c3c(-c4ccccc4)nn4ccccc34)cc12	.	-3%
COc1ccc(NC(=O)CN2CCN(Cc3ccccc3)S2(=O)=O)c(OC)c1	-7%	-1%
Cc1ccc2cccc(NC(=O)c3cccc4c(Br)cccc34)c2n1	-28%	-3%
O=C(NCCc1csc(-c2cccc(F)c2)n1)C(=O)Nc1cc(F)ccc1F	?	-1%
NNC(=O)c1ccncc1	.	17%&11%
COC(=O)c1ccc(NC(=O)Nc2nnc(N(C)C3CCCCC3)s2)cc1	-9%	9%
O=C(Cn1nc(C(F)(F)F)c2c1CCCC2)Nc1ccc(Cl)cc1	?	?
CCOc1ccccc1CN(CCc1ccc2c(c1)OCO2)Cc1cccc(OC)c1OC	?	-36%
Cn1c(=O)c2c(n3c4ccccc4nc13)NC(=O)CC2c1cccc(Cl)c1 (stereo not drawn)	-35%	-30%
COc1cc2c(cc1OC)C(COc1ccc3c(C)cc(=O)oc3c1)N(C(=O)CC(C)C)CC2 (stereo not drawn)	-29%	-9%
Cc1cc(=O)n(Cc2ccccc2)c2c1c(C)nn2-c1ccccc1	1%	9%
CCc1ccc(-n2nc(CO)c(C(=O)NCCc3ccccc3)n2)cc1	6%	1%
Cc1c(C(=O)OCC2CCCCC2)[nH]c2c1C(=O)CC(c1ccc(Cl)cc1)C2 (stereo not drawn)	7%	3%
Cc1ccc(Cl)cc1NC(=O)c1cc(-c2ccc3c(c2)OCCO3)on1	-14%	12%
CCOc1ccc(-c2cc3nc(C4CCN(C(=O)OC(C)(C)C)CC4)c(C(=O)Nc4cccc(C(F)(F)F)c4)cn3n2)cc1	-2%	-18%
O=C(NCc1ccccc1)c1cnc2sc(N3CCCC3)nn2c1=O	-4%	6%
COC(=O)c1ccc(Cl)cc1NC(=O)N(Cc1ccc(OC)cc1)C1CCN(C(C)=O)CC1	2%	-10%
COc1ccc(Cl)cc1NC(=O)Cn1c(=O)n(Cc2nc(C)no2)c(=O)c2ccccc21	?	-3%
O=C(Nc1cccc(C(F)(F)F)c1)c1ccc2c(c1)nnn2C1CCCC1	1%	0%
COc1ccc(CNC(=O)C(=O)NCC(c2ccco2)S(=O)(=O)c2cccs2)cc1 (stereo not drawn)	-15%	-23%

7 records picked at random from those above:
SMILES	PMP22 txn	HTT prom inh
Cc1c(C(=O)OCC2CCCCC2)[nH]c2c1C(=O)CC(c1ccc(Cl)cc1)C2 (stereo not drawn)	7%	3%
Cc1cc(=O)n(Cc2ccccc2)c2c1c(C)nn2-c1ccccc1	1%	9%
Cn1c(=O)c2c(n3c4ccccc4nc13)NC(=O)CC2c1cccc(Cl)c1 (stereo not drawn)	-35%	-30%
CCOc1ccc(-c2cc3nc(C4CCN(C(=O)OC(C)(C)C)CC4)c(C(=O)Nc4cccc(C(F)(F)F)c4)cn3n2)cc1	-2%	-18%
O=C(Nc1cccc(C(F)(F)F)c1)c1ccc2c(c1)nnn2C1CCCC1	1%	0%
COc1ccc(Cl)cc1NC(=O)Cn1c(=O)n(Cc2nc(C)no2)c(=O)c2ccccc21	?	-3%
O=C(Cn1nc(C(F)(F)F)c2c1CCCC2)Nc1ccc(Cl)cc1	?	?

Next section.
SMILES	PMP22 txn	HTT prom inh
Cc1cccc(C(=O)N2CCCCC2CCN2CCCCC2)c1 (stereo not drawn)	-1%	-11%
CC1CCN(S(=O)(=O)c2nnc(NC(=O)c3ccc(C(C)C)cc3)s2)CC1	2%	?
Cc1ccc(Sc2ccc(N3CCCC(C(=O)Nc4ccc(F)c(Cl)c4)C3)nn2)cc1 (stereo not drawn)	-44%	-28%
CCOc1ccc(NC(=O)Cn2c(=O)c(CNc3ccc(OC)cc3)cc3ccc(OC)cc32)cc1	17%	-15%
COc1cccc(CCNC(=O)c2c(O)nc3cc(C)ccn3c2=O)c1	6%	-1%
CCCCN(CCCNC(=O)c1ccc(Sc2ccc(Cl)cc2)c(NC(C)=O)c1)c1ccccc1	?	?
CCOc1ccc2c(c1)c(=O)c(C(=O)c1ccc(CC)cc1)cn2CC(=O)Nc1ccc2c(c1)OCCO2	?	-15%
Cc1ccc(Cl)cc1NC(=O)C(C)n1nc(-c2ccccc2)ccc1=O (stereo not drawn)	-22%	-20%
CCOc1ccc(C(=O)NCc2nc3cccnc3n2Cc2cccc(OC)c2)cc1	-13%	-1%
CCOC(=O)c1nn2c(C(F)(F)F)cc(-c3ccc(C)cc3)nc2c1Cl	-2%	0%
Cc1ccccc1CNC(=O)C1CCN(c2nnc(-n3c(C)ccc3C)s2)CC1	?	-17%
Cc1ccc2c(=O)cc(CSc3ncn[nH]3)[nH]c2c1C	-46%	-2%
CCOC(=O)c1c(C)n(-c2ccccc2)c2ccc(OC(=O)c3cc(OC)cc(OC)c3)cc12	-15%	-10%[11.5 µM]
COc1ccccc1NC(=O)NCCCN1CCN(c2ccc(F)cc2)CC1	?	-3%
COc1ccc(-n2cc(C(=O)NC(C)c3ccccc3)c3ccccc3c2=O)cc1 (stereo not drawn)	-9%	-11%
CC(=O)Nc1c(C)nn(-c2ccccc2)c1N1CCC(C(=O)Nc2ccccc2F)CC1	19%	4%
COCCNC(=O)CSc1nc2cc3c(cc2c(=O)n1CCCC(=O)NCc1ccc(OC)cc1)OCO3	12%	-19%
COCCN1CCc2nc(SCC(=O)Nc3ccc(C)c(Cl)c3)[nH]c(=O)c2C1	14%	1%
COc1cccc(CNC(=O)CN2C(=O)N(c3cc(C)ccc3C)S(=O)(=O)c3ccccc32)c1OC	?	?
COc1ccc(C2CC(=O)c3cc(-c4nc(-c5cccc(Cl)c5)cs4)c(=O)[nH]c3C2)cc1 (stereo not drawn)	?	-19%
CCOC(=O)c1c(NC(=O)c2ccccc2OCC)sc2c1CCC(CC)C2 (stereo not drawn)	-8%	0%
CCOc1cccc2c1Oc1nc(-c3ccccc3)nc(SCC(=O)Nc3ccc(F)cc3)c1C2	-17%	-17%
COc1ccc(NC(=O)Cc2csc(C)n2)cc1	-8%	14%
Cn1c(NCCCCO)nc2c1c(=O)n(Cc1ccc(Cl)cc1)c(=O)n2C	-13%	-16%
Cc1ccsc1CN(C(=O)COc1ccccc1Cl)C1CCS(=O)(=O)C1 (stereo not drawn)	-23%	-10%
Cc1oc(C)c2c(=O)cc(-c3ccc4c(c3)OCO4)cc(OC(=O)c3ccc(Cl)cc3)c12	-12%	-9%
CCCCS(=O)(=O)c1oc(-c2ccc(F)cc2)nc1S(=O)(=O)c1ccc(C)cc1	8.4µM*	?
Cc1ccc(C)c(N2CCN(C(=O)CSCc3ccccc3Cl)CC2)c1	-29%	-20%
Cc1ccccc1C(=O)n1nc(-c2cccnc2)nc1NCc1ccc(F)cc1	?	?
CCc1ccccc1NC(=O)CN1C(=O)COc2ccc(S(=O)(=O)N3CCCCCC3)cc21	-31%	-3%
CCOc1ccccc1CNC(=O)CCCN1C(=O)COc2ccc(C)cc21	-15%	-18%
Cc1cc(C)cc(-n2c(SCC(N)=O)nc3c(oc4ccccc43)c2=O)c1	?	-20%
COc1ccc(N2CCN(C(c3ccc(F)cc3)c3sc4nc(-c5ccco5)nn4c3O)CC2)cc1 (stereo not drawn)	20%	-4%
Cc1cccc(-n2ncc(C(=O)N3CCOCC3)c2C2CCN(C(=O)OC(C)(C)C)CC2)c1	23%	4%
Cc1cc(F)ccc1Nc1nc2ccc(Cl)cc2n2cnnc12	-25%	-10%
Cc1nccn1CC1CCc2c(c3ccccc3n2C)C1=O (stereo not drawn)	.	-8%&-4%
Cc1noc(-c2ccc(-c3noc(-c4ccccc4)n3)cc2)n1	-6%	37%[activator]
CCN(c1cccc(C)c1)c1ncnc2c1cnn2-c1cccc(Cl)c1	?	-5%
COc1ccc(NC(=O)Cn2c(=O)oc3cc(S(=O)(=O)N4CCCCC4C)ccc32)cc1 (stereo not drawn)	-17%	?
CCCOc1ccc(C(=O)Nc2ccc3oc(-c4ccc5ccccc5c4)nc3c2)cc1	1%	-7%[11.5 µM]
CCn1c(=O)c2cc(C(=O)NCCc3ccc(OC)c(OC)c3)sc2c2ccccc21	10%	-12%
Cc1nc(-c2ccccc2)sc1CCNC(=O)c1ccco1	1%	-9%
Cc1ccc(CNC(=O)C(=O)NCC(c2ccco2)S(=O)(=O)c2ccccc2)cc1 (stereo not drawn)	-13%	?
Cc1ccc(CCNc2nc3c(S(=O)(=O)c4ccc(C)cc4)nnn3c3ccsc23)cc1	?	0%
COc1cccc(CN(C(=O)COc2ccc(Cl)c(C)c2)C2CCS(=O)(=O)C2)c1 (stereo not drawn)	-51%	-21%

An excerpt from above in order of count of non-hydrogen atoms, largest number first.
SMILES	PMP22 txn	HTT prom inh
Cc1cccc(-n2ncc(C(=O)N3CCOCC3)c2C2CCN(C(=O)OC(C)(C)C)CC2)c1	23%	4%
CCCOc1ccc(C(=O)Nc2ccc3oc(-c4ccc5ccccc5c4)nc3c2)cc1	1%	-7%[11.5 µM]
COc1cccc(CN(C(=O)COc2ccc(Cl)c(C)c2)C2CCS(=O)(=O)C2)c1 (stereo not drawn)	-51%	-21%
Cc1nc(-c2ccccc2)sc1CCNC(=O)c1ccco1	1%	-9%

Carrying on:
SMILES	PMP22 txn	HTT prom inh
CCc1ccc(-n2c(=O)c3sc4ccccc4c3n(CC(=O)N(CC)Cc3ccccc3)c2=O)cc1	?	-11%
CCOc1ccccc1CNC(=O)C1CCN(Cc2cc3ccccc3n2Cc2ccccc2)CC1	-11%	0%
COc1cccc(C2CC(=O)N3CN(C4CCCCC4)CSC3=C2C#N)c1 (stereo not drawn)	?	-20%
Cc1ccc2oc(C(=O)N(Cc3cccc(F)c3)C3CCS(=O)(=O)C3)c(C)c2c1 (stereo not drawn)	-12%	-16%
COc1ccc(Cl)cc1NC(=O)c1cc(S(=O)(=O)N2CCC(C)CC2)cn1C	1%	-7%
CC(C)c1onc(-c2c(Cl)cccc2Cl)c1COc1ccc(C=Cc2cccc(C(=O)O)c2)c(Cl)c1	.	23%
Cc1cc(C)cc(NC(=O)c2cc(S(=O)(=O)N3CCOCC3)cn2C)c1	-26%	-2%

Random draw from the library, and some 2.4% of all compounds hit somewhere here.
